Screening data (PubChem)
FGF22 binding – shifts melting point of recombinant human FGF22; Q9HCT0; recombinant FGF22 thermal shift, SYPRO orange fluorescence; percent of sucrose octasulfate shift, DMSO zero; calls only at 9.99 µM; 340,000 tested, 1.5% active; AID 651658;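 active = melting point raised past a set limit in the mean and every replicate; three in four hits are not shown here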
HNF4A DNA FP – change in binding of human HNF4 alpha to DNA; HNF4a-FITC DNA binding, fluorescence polarization, 1 h; activity change, % at 10 µM; P41235; 360,000 tested, 0.3% active; in the data active = activity change above about 30%, passing the limit was not always enough;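 note: controls were the assay level and a saturating level of protein; the project sought stronger binding though the title names inhibitors; some compounds called inactive have numbers as strong as hits; positive values seem to mean higher polarization but the record does not say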
ALR inh – human ALR oxidase inhibition via reduced H2O2. P55789. purified ALR, DTT oxidation, H2O2 HRP-luminol luminescence. inhibition, % (no concentration beside the values). 290,000 tested, 3.8% active. AID 485317;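 active = mean and each replicate at 75% or more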;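 note: stock transfer was 7.5 nL into about 7.5 µL; 0% = neutral wells and 100% = wells with inactivated enzyme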
Target sequence (P55789 whole entry, looked up): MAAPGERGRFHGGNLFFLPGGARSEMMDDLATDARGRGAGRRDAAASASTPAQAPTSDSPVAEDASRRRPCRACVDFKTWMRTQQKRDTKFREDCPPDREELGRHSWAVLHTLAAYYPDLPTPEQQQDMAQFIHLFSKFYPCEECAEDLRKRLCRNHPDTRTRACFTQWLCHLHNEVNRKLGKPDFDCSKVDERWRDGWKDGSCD
Ecoli growth – E. coli growth inhibition. Escherichia coli growth, OD600, 23 h; active compounds read low. OD600 absorbance (no concentration beside the values). 330,000 tested, 0.21% active;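 active = OD600 absorbance below the run mean of sample wells minus 3.6 SD, in any replicate, cut at about 0.56 in these data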;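 note: stock transfer was 300 nL into about 60 µL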
B2AR ag – agonists of human beta-2 adrenergic receptor inducing internalization; P07550; Am2.2-beta2AR cells, FAP receptor internalization, flow cytometry; reference of the scale not given here; response, % (no concentration beside the values); 340,000 tested, 0.43% active; AID 504454;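 active = response above a set limit, near 3 SD of response in nonfluorescent compounds, cut at about 42% in these data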;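 note: stock transfer was 100 nL into about 11 µL; a reference agonist was the positive control; negative values mostly stem from fluorescent compounds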
Target sequence (P07550 whole entry, looked up): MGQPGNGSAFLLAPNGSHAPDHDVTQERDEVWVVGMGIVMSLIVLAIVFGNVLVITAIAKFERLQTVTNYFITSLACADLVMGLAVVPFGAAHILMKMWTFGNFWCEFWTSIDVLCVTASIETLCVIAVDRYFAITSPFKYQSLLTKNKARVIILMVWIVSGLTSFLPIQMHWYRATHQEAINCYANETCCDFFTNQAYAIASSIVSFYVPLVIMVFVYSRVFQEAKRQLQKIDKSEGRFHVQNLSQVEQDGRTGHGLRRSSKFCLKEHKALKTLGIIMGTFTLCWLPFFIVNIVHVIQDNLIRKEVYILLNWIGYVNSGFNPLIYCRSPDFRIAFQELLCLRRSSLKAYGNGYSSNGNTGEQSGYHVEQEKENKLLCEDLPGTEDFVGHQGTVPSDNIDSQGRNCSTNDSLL
UCH37 inh – blocks the human deubiquitinase UCH37 | Q9Y5K5 | purified proteasome/UCH37, Ub-AMC cleavage fluorescence | inhibition, % (test concentration not listed) | 330,000 tested, 0.33% active | AID 588478;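 active = mean of two replicates above 20%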;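 note: 0% = compound-free wells with enzyme and 100% = wells lacking proteasome; stock transfer was 100 nL into about 20 µL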
Target sequence (Q9Y5K5 whole entry, looked up): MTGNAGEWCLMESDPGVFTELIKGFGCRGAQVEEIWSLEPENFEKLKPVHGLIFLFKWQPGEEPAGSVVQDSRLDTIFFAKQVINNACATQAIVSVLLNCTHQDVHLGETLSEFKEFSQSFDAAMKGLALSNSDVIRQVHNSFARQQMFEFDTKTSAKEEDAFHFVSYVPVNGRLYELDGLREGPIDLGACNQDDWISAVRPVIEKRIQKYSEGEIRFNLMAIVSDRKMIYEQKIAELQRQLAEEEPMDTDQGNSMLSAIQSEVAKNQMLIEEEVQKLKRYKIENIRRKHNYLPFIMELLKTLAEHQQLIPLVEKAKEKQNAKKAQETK
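assay system = human UCH37 enzyme supplied as purified proteasome complex | amount = proteasome at 0.15 nM in the dispensed enzyme solution | schedule = 30 min compound-proteasome preincubation then 25 min substrate reaction, room temperature | measured by = fluorescence, ex 355 nm, em 460 nm | benchmarks = no-proteasome wells (full inhibition) and compound-free wells (no inhibition)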
LANA-H2A inh – blocks KSHV LANA binding to histone H2A/H2B; Q9QR71; cell-free LANA-H2A/H2B peptide, fluorescence polarization; inhibition, % (no concentration beside the values); 320,000 tested, 0.6% active; in the data active = inhibition mostly above about 10%, no sharp cut-off; inactive = mostly below about 6.7%;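 note: stock transfer was 7.5 nL into about 10 µL; 0% = median of vehicle wells and 100% = median of positive control wells; one replicate is shown; the record names a cut of 25% in any replicate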
Active calls of the source: *; i = inactive; . = not tested or not shown. The list is partial; rates above refer to the full screens.

Compound,FGF22 binding,HNF4A DNA FP,ALR inh,Ecoli growth,B2AR ag,UCH37 inh,LANA-H2A inh
O=[N+]([O-])c1cccnc1N1CCC(c2cc(-c3ccc(Cl)cc3)n[nH]2)CC1,.,-3.3,-4,.,14,.,-3.5
O=C(COC(=O)c1cccc(S(=O)(=O)N2CCCC2)c1)NCc1ccccc1,i,-3.9,-10,0.71,-1,0.1,0.2
O=C(CCNC(=O)C1CCN(S(=O)(=O)c2ccc(F)cc2)CC1)Nc1ccccc1,i,-2.3,-4,0.67,6,-0.8,4.1
O=C1C(=O)N(CCN2CCOCC2)C(c2ccncc2)/C1=C(/O)c1ccc2c(c1)OCO2 (stereo unspecified),.,5.8,0,0.68,3,8.6,1.4
Cc1ccc(-c2nnc(-c3cccc(Br)c3)o2)cc1,.,-0.3,-3,0.74,-7,4.2,2.0
COc1cccc(-n2c(COc3ccccc3C)nnc2SCC(=O)O)c1,.,-1.9,-1,0.66,6,-1.4,-9.6
C[N+](C)(C)C[C@H](O)CC(=O)O,i,-1.9,-34,.,1,1.1,-3.3
CCOC(=O)c1cc(C)nc(Sc2ccc(C)cc2)c1C#N,i,-4.7,.,.,6,.,-4.5
O=C(Cc1ccc(S(=O)(=O)N2CCOCC2)s1)Nc1cc(C(F)(F)F)cc(C(F)(F)F)c1,i,4.7,2,0.66,9,4.0,.
COc1ccc2[nH]c(=O)c(CN(Cc3cccnc3)C(=O)Nc3ccccc3)cc2c1,.,2.5,-16,0.66,12,-64,-7.1
CCOc1ccc(NC(=O)CC2C(=O)N(CC)C(=S)N2CCN2CCOCC2)cc1 (stereo unspecified),i,1.9,0,0.74,-4,0.7,-7.7
CCOC(=O)c1oc2ccccc2c1NC(=O)C1CCCCC1,i,-1.3,-21,0.66,-15,-5.7,-0.7
COc1cccc(-c2ccc(C#N)c(SCC(=O)NCCc3cccc(Cl)c3)n2)c1,.,3.8,-12,0.72,4,-38,-2.5
COC(=O)c1c(NC(C)=O)sc(C(=O)N2CCOCC2)c1C,i,2.1,-2,0.66,9,5.9,-6.1
C/C(=N\NC(=S)NCCc1ccccc1)c1ccc(Cl)cc1Cl,i,-0.7,.,.,-8,.,-8.8
COCCNC(=S)Nc1ccc([N+](=O)[O-])cc1C,i,4.1,.,0.69,3,7.4,-2.4
CCOC(=O)CSc1nc(C)c2ccccc2n1,.,1.5,-2,0.65,4,2.6,-0.8
O=C1/C(=C/c2cccc(Br)c2)SC(=S)N1/N=C/c1cc([N+](=O)[O-])ccc1O,i,0.0,.,.,-6,.,1.2
COc1cc(Cn2ccnc2)c(OC)cc1Cn1ccnc1,.,3.2,-5,0.64,-4,1.8,5.3
CC(=O)Nc1ccc(NC(=O)C(C)N2CCN(S(=O)(=O)c3ccc(C)cc3)CC2)cc1 (stereo unspecified),i,3.0,-5,0.67,-10,0.0,3.8
Cn1c(CSCc2ccc(F)cc2)nnc1SCC(=O)Nc1cccc(C(=O)O)c1,i,-0.1,4,0.69,-4,-0.6,-2.6
COc1ccc(CC(=O)NNC(=O)c2cccnc2)cc1OC,i,-1.7,-3,0.65,-6,0.4,-1.7
O=C(NC(=S)Nc1nc2ccccc2s1)c1ccco1,i,3.0,11,0.72,-7,-8.3,0.2
COc1ccc(C(=O)c2ccc(Cl)cc2Cl)cc1,.,0.4,-16,.,-6,.,5.5
COc1ccccc1NS(=O)(=O)c1ccc2oc(SC(C)C(=O)N3CCNC3=O)nc2c1 (stereo unspecified),i,-2.1,.,0.68,16,0.1,-1.5
C/C(=N\NC(=O)c1ccc(CSc2cccc3cccnc23)cc1)C1CCCCC1,i,3.1,-11,.,-4,.,-4.0
Cc1ccc(S(=O)(=O)N2CC(O)C[C@H]2C(=O)OCC(=O)Nc2ccc(N3CCCCC3)cc2)cc1C (stereo partly specified),i,1.2,.,0.65,6,3.9,.
COc1ccc(C2C(C(C)=O)=C(O)C(=O)N2c2ccc(F)cc2)cc1 (stereo unspecified),i,-1.8,0,0.62,3,5.6,2.9
CC(=O)c1cccc(CN2CCCC(CCC(=O)NCc3ccc(F)c(F)c3)C2)c1 (stereo unspecified),i,-1.2,-4,0.67,6,4.3,1.0
COCCn1c(CN(C)Cc2ccccc2)nc2c1c(=O)n(C)c(=O)n2C,i,0.7,-29,0.79,2,3.1,-0.3
Cc1ccccc1C(OCCN(C(C)C)C(C)C)c1ccccc1 (stereo unspecified),i,2.7,-2,0.7,18,3.7,-2.1
CCCC(=O)Nc1nc2c(C)c(Cl)ccc2s1,i,0.3,1,0.7,-1,3.9,-0.2
CCOC(=O)c1c(C)[nH]c(C(=O)COC(=O)c2ccccc2NC(=O)c2ccco2)c1C,.,5.2,-11,0.79,3,-39,-0.2
C/C(=N/OC(=O)c1ccc(C)cc1)c1cccs1,.,1.8,-18,.,-5,.,-2.0
O=c1[nH]n2c(=O)c3c([nH]c2c1N=Nc1cccc(Cl)c1)CCCC3,.,-1.9,18,0.66,-2,18,3.7
NC(=O)c1cnn2c(C(F)(F)F)cc(-c3ccccc3)nc12,.,4.8,1,0.71,-2,-30,-6.3
CC(=O)N1CCc2c(sc(NC(=O)Cc3ccccc3)c2C(N)=O)C1,i,-0.9,-23,0.7,-5,-2.3,-2.4
COc1ccc(CCNC(=O)CCC2COc3ccccc3O2)cc1OC (stereo unspecified),.,4.8,-21,0.63,5,1.2,8.6
Oc1ccccc1/C=N/NC(=S)NCCc1ccccc1,i,-7.7,11,.,8,.,-3.8
CCOC(=O)c1ccc(S(=O)(=O)Nc2ccc3cn[nH]c3c2)cc1,.,1.4,-10,0.66,15,2.7,-1.3
CCOC(=O)c1c(N)sc(C(C)=O)c1C,.,5.3,8,0.69,3,12,-6.3
COc1ccc(-n2ncc3c(N4CCCCC4)ncnc32)cc1,.,1.6,8,0.65,-8,2.2,-6.5
Cc1ccc(S(=O)(=O)N2CCN(CC(=O)NCC3(N4CCOCC4)CCCCC3)CC2)cc1,i,-0.4,.,0.69,-3,-1.0,.
CN(C)c1ccc(NC(=O)c2ccc(N3CCOCC3)nc2)cc1,i,0.1,100*,0.66,7,11,-0.9
COC(=O)c1sc(-c2ccccc2)cc1NC(=O)c1ccccc1,i,-0.9,6,0.71,6,-5.8,-3.9
Cn1c(CNC(=O)c2ccc(Cl)c(Cl)c2)nnc1SCC(=O)Nc1sc2c(c1C#N)CCCC2,.,0.1,-2,0.71,-13,-0.9,3.4
CCc1n[nH]c2c1/C(=N\O)CC(C)(C)C2,.,3.1,-2,.,2,.,3.7
CC(=O)c1cnc2cc(-c3ccc(C)cc3)nn2c1C,.,-2.0,-5,0.72,-12,-55,3.0
O=C(CN1CCN(c2ccccc2O)CC1)Nc1ccc2c(c1)CCC2,.,3.5,7,0.66,28,0.9,-1.3
O=C(c1ccccn1)N(c1ccccc1)C1(C(=O)NC2CCCCC2)CCCCC1,i,7.3,-4,0.67,0,-0.5,-0.7

(next part)
Compound,FGF22 binding,HNF4A DNA FP,ALR inh,Ecoli growth,B2AR ag,UCH37 inh,LANA-H2A inh
Clc1ccccc1C(c1nnnn1Cc1ccco1)N1CCN(Cc2ccco2)CC1 (stereo unspecified),.,-1.1,-1,0.64,3,-1.4,2.4
Brc1ccc(-c2noc3c2-c2nc(-c4ccccc4)sc2CC3)cc1,i,-0.5,-2,0.71,4,-1.0,0.1
Cc1ccc(CN2CCN(/N=C/c3cc([N+](=O)[O-])ccc3Cl)CC2)cc1,.,-2.0,4,.,2,.,1.5
COc1ccc(C)cc1S(=O)(=O)N(C)CC(=O)NC1CCCCC1,.,3.5,-6,0.67,-3,4.8,1.3
COc1ccc(-n2c3c(cc(C#N)c2=O)C(=O)CCC3)cc1,i,-5.1,4,0.69,6,3.9,6.0
S=C1NCCOCCOCCOCCNC(=S)NCCOCCOCCOCCN1,.,3.9,.,0.66,-4,2.2,1.2
CCOC(=O)[C@@H]1[C@H]2COc3ccc(Br)cc3[C@@H]2N2C(=O)N(c3ccc(F)cc3)C(=O)[C@]12C,i,0.3,-15,.,16,0.6,3.6
CCOC(=O)C1(Cc2cccc(Cl)c2)CCCN(C(=O)CCOC)C1 (stereo unspecified),.,6.3,-2,0.67,3,-1.8,-1.8
C/C(=N\N1CCN(c2ccc(Cl)cc2)CC1)c1cccs1,.,2.5,.,.,-5,.,-1.3
Cc1cccc2[nH]c(-c3ccc(NC(=O)c4ccco4)cc3)nc12,.,3.8,-6,0.66,2,-8.6,5.6
O=C(Cc1ccc(Cl)cc1)Nc1ccc(-c2cc3ccccc3oc2=O)c(Cl)c1,.,1.5,-3,0.66,-17,-172,-0.6
CCN(C(=O)CSc1ncn[nH]1)C1CCCCC1,.,-1.4,-6,0.71,-1,4.7,4.2
Cc1ccccc1-n1c(C)nnc1SCc1nc2ccccc2s1,i,4.7,-12,0.67,2,1.3,-0.9
CCOc1cc(/C=N/NC(=O)C(O)(c2ccccc2)c2ccccc2)ccc1OC(=O)c1ccco1,i,0.0,-3,.,1,.,7.2
CCOc1ccccc1NC(=O)CN1C(=O)COc2ccc(Cl)cc21,i,-1.7,-7,0.71,4,5.0,-2.1
Cc1cccc(N(C(=O)CNC(=O)c2ccco2)C(C(=O)NC2CCCC2)c2cccnc2)c1 (stereo unspecified),.,0.1,-5,0.73,-7,-0.9,4.2
COc1ccc(NC(=O)c2cnc(SC)nc2)cc1,i,-2.4,4,0.65,-9,0.7,-2.6
COc1ccc(-c2ccnc3nc(N4CCN(c5ccccc5)CC4)nn23)cc1,.,1.4,21,0.7,-9,-0.9,-0.1
Cc1c(OCC(=O)N(C)C)ccc2c3c(c(=O)oc12)CCCCC3,i,-1.6,-7,0.68,-10,-131,-1.2
CCOC(=O)C1CCN(C(=O)CNC(=O)OC(C)(C)C)CC1,.,-2.1,6,0.77,-4,0.6,5.4
Cc1nc(C)n(CC(=O)c2ccc(Cl)cc2Cl)n1,i,-1.3,-3,0.6,-5,1.7,2.9
O=C(c1ccc([N+](=O)[O-])c(CS(=O)(=O)c2ccc(Cl)cc2)c1)N1CCCCC1,i,-1.4,.,0.68,-2,3.1,1.5
Cc1ccc(C(=O)c2c3ccc(C(F)(F)F)cc3[n+]([O-])n2CCCN)cc1,i,-1.3,-18,0.6,19,2.9,0.5
CN(CC(=O)Nc1ccccc1Br)C(=O)COc1ccc2ccccc2c1,i,-1.0,-18,0.68,3,-0.6,-5.8
Cc1ccc(-n2c(SCC(=O)Nc3cccc(C)c3)nc3c(oc4ccccc43)c2=O)cc1,i,.,10,0.72,.,2.7,1.6
CCN(CC)S(=O)(=O)c1cccc(-c2nnc(C(=O)c3ccc(C(F)(F)F)cc3)o2)c1,.,-0.9,-2,0.7,0,5.7,5.2
O=C(O)c1cc(NC(=S)NC(=O)C(c2ccccc2)c2ccccc2)ccc1Cl,i,1.0,9,0.68,0,4.4,2.0
CCOc1cccc(OCCOCCNC(C)(C)C)c1,i,3.8,0,0.68,5,6.5,-1.1
O=C(CSc1nnc2ccccn12)NCCc1ccc(F)cc1,i,-1.3,.,0.69,8,-1.5,-3.1
CS(=O)(=O)Nc1ccc(C(=O)N2CCN(c3ccccc3F)CC2)cc1,.,1.9,6,0.66,3,3.6,-4.1
O=C(Cn1cnc2ccccc2c1=O)NCc1cccs1,i,1.6,-7,0.66,6,0.2,-3.3
O=C(NS(=O)(=O)c1ccccc1Cl)c1ccc[nH]1,.,.,5,0.69,.,2.7,-3.6
